LASV entry inh = qHTS for Inhibitors of binding or entry into cells for Lassa Virus | Potency, µM (series often up to 37.9 µM), without a hit: top-dose activity change, negative = inhibition, usual class: inhibitors | Lassa virus pseudotype entry inhibition, cell reporter; control for the full effect not named in the record | hit rate 1.2% among 300,000 | AID 540256, 2011; active means well fitted inhibition curve with a large enough effect; inconclusive means small, poorly fitted or top-dose-only effect, or effect the other way; inactive means flat fitted curve, though single readings scatter; tested in HEK293 cells; note: % is set by controls: 0 for no effect and ±100 for the full control effect; nearly all actives have a fitted effect of over 50% in size; luciferase read-out
Marburg entry inh = qHTS for inhibitors of binding or entry into cells for Marburg Virus. AID 540276, 2011. hit rate 1.8% among 300,000. Marburg virus pseudotyped entry inhibition, cell reporter; control for the full effect not named in the record; about a third of the inactives were read at about 46 µM. Potency, µM (series often up to 37.8 µM), for inactives: at the top dose activity change, negative = inhibition, most hits filed as inhibitors; active = well fitted inhibition curve with a large enough effect; inconclusive = small, poorly fitted or top-dose-only effect, or effect the other way; inactive = flat fitted curve, though single readings scatter; tested in HEK293 cells; about a fifth of its hits are not listed in these tables; note: % is set by controls: 0 for no effect and ±100 for the full control effect; luciferase read-out
2A StopGo = High Throughput Screening for Foot and Mouth Disease Virus Antivirals; human cells with a luciferase reporter of 2A StopGo recoding; control for the full effect not named in the record; Potency, µM (highest dose often 57.9 µM), inactives show at the highest dose signal change, negative = less light; hit rate 1.2% among 410,000; active = well fitted falling curve with a large enough effect; inconclusive = small, poorly fitted or top-dose-only effect; inactive = no such curve, though single readings can be large or run the other way; tested in HEK293T cells; note: % is set by controls: 0 for no effect and ±100 for the full control effect; nearly all actives have a fitted effect of over 45% in size; luciferase light after 4 h
NS1 function inh = qHTS Assay for Inhibitors of Influenza NS1 Protein Function. S. cerevisiae slowed by influenza A NS1, growth recovery by OD600. Potency, µM (top dose mostly 46.1 µM), inactives show at the top dose activity, positive = more growth. hit rate 0.4% among 270,000. AID 2326, 2010; note: actives are rising curves; nearly all actives have a fitted effect of over 50% in size
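In this qHTS, NS1 from influenza A is expressed in budding yeast, where it slows growth. Cells are switched from glucose to 2% galactose medium (pH 6.0, -URA), treated with compound, and growth recovery is read at OD600.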
RE007 growth inh = qHTS Assay for Inhibitors of the HIV-1 protein Vpr; S. pombe RE007 Vpr strain, BacTiter-Glo ATP luminescence, 24 h; control for the full effect not named in the record; Potency, µM (doses to about 92.2 µM), inactives show at the top dose activity change, negative = less growth; hit rate 0.21% among 360,000; active = well fitted falling curve with a large enough effect; inconclusive = small, poorly fitted or top-dose-only effect; inactive = no such curve, though single readings can be large or run the other way;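 note: % is set by controls: 0 for no effect and ±100 for the full control effect; nearly all actives have a fitted effect of over 50% in size; the assay follows cell death caused by Vpr and the record does not say whether a fall means rescue or toxicity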
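Fission yeast RE007 carrying one integrated HIV-1 vpr copy, seeded at OD 0.01 in PMG+AL medium with 23 nL pinned compound. Grown 24 h at 30 degrees; viability read by BacTiter-Glo luminescence after 5 min.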
Cruzain inh noDet = qHTS Assay for Promiscuous and Specific Inhibitors of Cruzain (without detergent). Potency, µM, inactives show max response, negative = inhibition, actives largely listed as inhibitors. Cruzipain (Trypanosoma cruzi), P25779. hit rate 2.3% among 200,000. purified cruzain, Z-FR-AMC fluorescence, no detergent. AID 1476, 2009; active = well fitted curve in the direction sought with a large enough effect; inconclusive = small, poorly fitted or top-dose-only effect, or another doubt; inactive = no such curve, though single readings can be large; an effect the other way counts as inactive or inconclusive;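 note: plate controls were enzyme without inhibitor for no effect and buffer without enzyme for full effect; nearly all actives have a fitted effect of over 40% in size; top concentration of the series not given in the record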
Target sequence (P25779 123-467 limits assumed): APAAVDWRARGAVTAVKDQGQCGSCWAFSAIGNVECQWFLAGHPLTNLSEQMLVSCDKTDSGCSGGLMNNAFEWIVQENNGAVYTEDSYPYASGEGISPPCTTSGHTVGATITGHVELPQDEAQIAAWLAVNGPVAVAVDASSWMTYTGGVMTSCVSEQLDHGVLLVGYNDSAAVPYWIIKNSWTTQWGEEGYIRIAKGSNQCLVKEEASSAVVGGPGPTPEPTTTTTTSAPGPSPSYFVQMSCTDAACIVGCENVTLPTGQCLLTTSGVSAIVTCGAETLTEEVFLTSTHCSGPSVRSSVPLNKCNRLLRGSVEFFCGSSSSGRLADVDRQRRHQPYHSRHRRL
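Detergent-free condition (0.00005% Triton X-100) in acetate buffer pH 5.5 with DTT. 1.5 nM enzyme and compound were pre-mixed 15 min, then 2 uM Z-FR-AMC substrate added; reaction progress from fluorescence change between first and third reads (60 s).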
SARS PLpro yeast = qHTS of Yeast-based Assay for SARS-CoV PLP; S. cerevisiae expressing SARS-CoV PLpro, growth rescue; control for the full effect not named in the record; Potency, µM (highest dose often 32.9 µM), without a hit: at the highest dose activity, positive = growth rescue; hit rate 0.19% among 330,000; AID 485353, 2010; note: 0% is about no effect; nearly all actives have a fitted effect of over 55% in size; growth read by luminescence after 48 h
Cruzain inh Det = qHTS Assay for Promiscuous and Specific Inhibitors of Cruzain (with detergent) | AID 1478, 2009 | hit rate 0.43% among 200,000 | Potency, µM, for inactives: max response, negative = inhibition, most hits filed as inhibitors | purified cruzain, Z-FR-AMC fluorescence, 0.01% Triton; active = well fitted curve in the direction sought with a large enough effect; inconclusive = small, poorly fitted or top-dose-only effect, or another doubt; inactive = no such curve, though single readings can be large; an effect the other way counts as inactive or inconclusive;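 note: plate controls were neutral wells for no effect and buffer without enzyme for full effect; nearly all actives have a fitted effect of over 40% in size; top concentration of the series not given in the record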
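Read-out: AMC fluorescence (360 nm excitation, 450 nm emission), four reads over 2 min, first-to-third difference used. Conditions: cruzain 1.5 nM, Z-FR-AMC 2 uM, pH 5.5 acetate, 5 mM DTT, 0.01% Triton X-100.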
Starred values were filed as active, the others as inactive; ? = inconclusive; · = not tested or not shown; [ ] = dose if it differs, or a comment. Unless noted, calls come from the whole dose curve; as a rule, active means well fitted rising curve with a large enough effect; inconclusive means small, poorly fitted or top-dose-only effect; inactive means no such curve, though single readings can be large or run the other way. Potency is the fitted concentration of half-maximal effect.

Molecule	LASV entry inh	Marburg entry inh	2A StopGo	NS1 function inh	RE007 growth inh	Cruzain inh noDet	SARS PLpro yeast	Cruzain inh Det
O=C(C1=C[C@@H](c2coc3ccccc3c2=O)C[C@@H](OCc2ccc(CO)cc2)O1)N1CCN(Cc2ccc3c(c2)OCO3)CC1	·	·	-28.0%	-8.8%	-4.1%	·	-2.1%	·
Cc1cc(S(=O)(=O)Nc2ccc3ccccc3c2)c(C)s1	-16.2%	?	44.2%[activator]	-64.3%	?	-12.9%	-30.4%	-8.6%
O=[N+]([O-])c1ccc(C(c2sc3nc(-c4ccco4)nn3c2O)N2CCN(Cc3ccccc3)CC2)cc1 (stereo unspecified)	12.3%[46.1 µM]	·	-5.9%	·	·	-11.2%	·	-2.2%
CCNc1nc(NCC)nc(SCC(C)=O)n1	5.8%	?	14.4%	-0.3%	0.9%	·	0.0%	·
Cc1ccc(C(=O)Cn2cc([N+](=O)[O-])nc2C)cc1	-3.0%	-23.6%[46.1 µM]	2.9%	-4.0%	1.0%	·	-1.5%	·
Cc1cccc(N2C(=O)NC(=O)/C(=C\C=C\c3ccco3)C2=O)c1	·	·	7.08µM*	-1.2%	7.8%	·	-1.5%	·
CCOC(=O)C1CCCN(C(=O)CSc2ccc(Br)cc2)C1 (stereo unspecified)	?	1.4%[46.1 µM]	-7.7%	-5.1%	-5.9%	·	-6.8%	·
CCOc1ccc(CCNC(=O)CCn2nc(C)c3c(C)n(-c4ccccc4)nc3c2=O)cc1	·	·	-10.6%	-5.9%	11.3%	·	2.1%	·
N#CC1=C(N)Oc2n[nH]c(-c3cccnc3)c2C1c1cc(F)ccc1F (stereo unspecified)	16.3%	-18.5%	?	·	-1.2%	·	3.2%	·
Cc1oncc1C(=O)N1CCCC(CO)(Cc2ccc(F)cc2F)C1 (stereo unspecified)	-1.7%[46.1 µM]	?	16.2%	1.3%	-4.1%	·	-1.8%	·
CC(=O)Nc1ccc(Oc2cnc3ccccc3n2)cc1	1.9%	4.9%	0.6%	-14.9%	11.9%	0.6%	6.6%	0.6%
COC(=O)c1cc(CNC(=O)C2CC(=O)N(c3ccc4c(c3)OCCO4)C2)ccc1OC (stereo unspecified)	-12.0%	?	-24.4%	·	7.5%	·	-4.2%	·
Cc1cccc(NC(=O)NCC(c2ccco2)N2CCCCC2)c1 (stereo unspecified)	-20.3%[46.1 µM]	7.4%[46.1 µM]	0.0%	-3.2%	14.2%	·	-1.3%	·
CCOC(=O)c1cnn(-c2cc(Oc3cccc(C)c3)ncn2)c1N	?	?	?	-1.0%	-27.8%	2.8%	0.6%	0.6%
Cc1nn(Cc2ccccc2)c(C)c1NC(=O)c1cc(-c2ccc3c(c2)OCO3)on1	0.9%	-8.6%	-18.2%	-12.6%	-5.3%	0.5%	11.5%	0.4%
N=c1n(CCO)c2ccccc2n1Cc1ccccc1F	-20.2%[46.1 µM]	?	-3.3%	·	·	-9.4%	·	-2.2%
COc1ccc2[nH]c3c(c2c1)CCN1C(=O)C(CC(=O)NCCN2CCOCC2)C[C@H](C(=O)N2CCOCC2)[C@@]31CCC1CCCC1 (stereo partly specified)	·	-5.9%	-8.1%	·	-3.7%	·	6.3%	·
Cc1cccc(C)c1OCC(=O)Nn1c(C)nc2ccccc2c1=O	-7.3%	-0.9%	?	-53.1%	-26.0%	-3.7%	-21.3%	-1.5%
CCOc1ccc(-c2cccc(NC(=O)COc3ccc(Cl)cc3)c2)nn1	-7.5%[46.1 µM]	24.1%[46.1 µM]	?	-24.9%	-9.4%	·	-0.1%	·
CC(=O)Nc1ccc(SC(C)C(=O)NC2CCCC2)cc1 (stereo unspecified)	12.6%	-1.4%[46.1 µM]	10.1%	5.9%	1.2%	·	10.0%	·
COc1cc(OC)c(S(=O)(=O)N2CCOCC2)cc1S(=O)(=O)N1CCOCC1	·	·	-6.9%	5.1%	-2.1%	·	23.9%	·
C[C@]12CC[C@H]3[C@@H](CCC4C[C@H](O)CC[C@@]43C)[C@@H]1CC[C@@H]2O (stereo partly specified)	·	43.9%	·	-5.9%	·	10.3%	·	-4.0%
Cc1cc(C)n2nc(SC3CCCCN(C(=O)c4ccc(F)cc4)C3=O)nc2n1 (stereo unspecified)	3.2%	11.9%	-4.8%	?	-16.8%	9.7%	1.6%	2.8%
CCOc1ccc(NS(=O)(=O)c2ccc(C(=O)N(C)CCc3ccc(OC)c(OC)c3)cc2)cc1	?	?	-20.2%	-2.9%	5.5%	·	1.4%	·
CCCN1C(=O)/C(=C/c2nc3ccccc3c(=O)[nH]2)c2cc(C)ccc21	?	-13.2%	1.9%	-1.7%	0.0%	·	0.4%	·
CCOc1ccc(-n2cc(-c3ccccc3)c3c(Nc4cccc(F)c4)ncnc32)cc1	10.9%[46.1 µM]	·	-25.4%	·	·	6.8%	·	0.9%
C=C(C)Cn1c(SCC)nc2ccccc2c1=O	3.0%	-11.9%	-16.7%	-26.8%	-8.9%	-4.1%	-0.7%	-5.7%
COC(=O)c1c(NC(=O)COC(=O)CCc2ccc(S(=O)(=O)N3CCOCC3)cc2)sc2c1CCC2	-9.9%	-16.8%	-11.8%	40.7%	-12.9%	28.5%	16.0%	-3.6%
COc1ccc(N(C(=O)C(C)C)S(=O)(=O)c2ccc(Cl)cc2)cc1	13.4%	-2.6%	3.4%	-14.0%	1.8%	-3.3%	-11.5%	2.2%
Cc1ccc(CNC(=O)C2CCCN(C(=O)Nc3ccc(F)cc3)C2)cc1 (stereo unspecified)	-8.1%	-17.4%[46.1 µM]	-17.2%	-3.0%	3.7%	·	-0.9%	·

The list goes on.
Molecule	LASV entry inh	Marburg entry inh	2A StopGo	NS1 function inh	RE007 growth inh	Cruzain inh noDet	SARS PLpro yeast	Cruzain inh Det
CC(=O)Nc1ccc(NC(=O)COC(=O)C2c3ccccc3Oc3ccccc32)cc1	?	4.1%[46.1 µM]	-0.3%	-4.5%	-2.6%	·	-2.0%	·
O=C(c1ccco1)N1CCCC(c2nc3c(nnn3Cc3c(Cl)cccc3Cl)c(=O)[nH]2)C1 (stereo unspecified)	-2.8%	-22.4%[46.1 µM]	-2.4%	-10.3%	18.5%	·	7.5%	·
O=C(NN1C(=O)C2C3c4ccccc4C(c4ccccc43)C2C1=O)c1ccccc1 (stereo unspecified)	-2.0%	13.3%	-19.6%	9.7%	-4.0%	-0.9%	-22.8%	-0.3%
CCn1c(SCC(=O)Nc2ccc3c(c2)OCO3)nc2c1c(=O)n(C)c(=O)n2C	8.0%	12.2%	-15.8%	-8.6%	0.5%	-3.1%	1.1%	4.6%
CC(C)C[C@H](NC(=O)c1nc[nH]c1C(=O)N[C@@H](CCCCNC(=O)OC(C)(C)C)C(=O)OC(C)(C)C)C(=O)OCc1ccccc1	·	·	?	?	-1.4%	·	5.4%	·
Cc1ccc(Cl)cc1N1CCN(c2nc3ccccc3c3nc(-c4cccnc4)nn23)CC1	·	6.6%[46.1 µM]	4.2%	·	·	9.6%	·	5.0%
O=C(NNC(=O)c1ccc([N+](=O)[O-])cc1Cl)c1ccncc1	?	?	2.3%	-0.7%	-6.0%	22.9%	2.0%	-2.0%
Cc1c(C(c2cccc(Br)c2)c2c(C)n(C)n(-c3ccccc3)c2=O)c(=O)n(-c2ccccc2)n1C	·	·	-16.2%	9.3%	-8.9%	·	-1.7%	·
O=C(CN(c1ccc2c(c1)OCCO2)S(=O)(=O)c1ccccc1)Nc1ccc2c(c1)OCO2	0.5%	0.9%	12.7%	-17.5%	1.2%	12.6µM*	-1.6%	5.3%
COc1cc(SC)ccc1C(=O)OCC(=O)NCCNC(=O)COC(=O)c1ccc(SC)cc1OC	?	4.8%[46.1 µM]	-18.4%	1.5%	-20.3%	·	-2.2%	·
O=S(=O)(c1ccccc1)N1CCN(Cc2cccc(Cl)c2)CC1	2.5%	0.0%	-20.7%	-53.8%	-19.3%	-9.0%	-4.0%	0.3%
CCCCC(C(=O)NC(C)(C)C)N(Cc1ccccc1)C(=O)c1snc(C(N)=O)c1N (stereo unspecified)	·	·	?	3.1%	2.5%	·	-4.4%	·
COC(=O)c1ccc(Nc2ncnc3c2cnn3-c2ccccc2)cc1	20.1%[46.1 µM]	·	-10.0%	·	·	-3.1%	·	0.7%
CC1CC(C)CN(c2nc3c(c(=O)n(C)c(=O)n3C)n2C)C1 (stereo unspecified)	-15.4%	0.5%	·	-15.9%	-8.8%	0.0%	1.8%	-3.9%
COC(=O)c1cccc([N+](=O)[O-])c1CN1CCCC(C(N)=O)C1 (stereo unspecified)	2.3%	25.1%[46.1 µM]	9.2%	·	-6.2%	·	-5.1%	·
O=C1CC(C(=O)Nc2cc(Cl)ccc2Cl)n2ncnc2N1 (stereo unspecified)	16.8%[46.1 µM]	-14.4%[46.1 µM]	36.4%[activator]	17.7%	-0.9%	·	-1.2%	·
Cn1c(O)c(C(=O)c2ccccc2Cl)c(=O)n(C)c1=O	9.2%	?	-21.2%	5.3%	-12.1%	-5.8%	4.2%	1.6%
CC(C)C1Cc2ccccc2-c2[nH]c(=S)[nH]c(=O)c21 (stereo unspecified)	16.3%	10.0%[14.2 µM]	2.6%	·	12.6%	·	·	·
Cc1ccc(C(=O)N2CC=C(c3ccccc3)CC2)o1	-3.2%	0.4%[46.1 µM]	1.4%	·	-19.3%	·	-10.1%	·

Retrieved by compound from the list above:
Molecule	LASV entry inh	Marburg entry inh	2A StopGo	NS1 function inh	RE007 growth inh	Cruzain inh noDet	SARS PLpro yeast	Cruzain inh Det
Cn1c(O)c(C(=O)c2ccccc2Cl)c(=O)n(C)c1=O	9.2%	?	-21.2%	5.3%	-12.1%	-5.8%	4.2%	1.6%
COC(=O)c1cccc([N+](=O)[O-])c1CN1CCCC(C(N)=O)C1 (stereo unspecified)	2.3%	25.1%[46.1 µM]	9.2%	·	-6.2%	·	-5.1%	·
